PMP22 txn: Cell-based coincidence reporter assay to measure PMP22 gene transcription in S16 Pmp22-F2sN cells - Primary screen | S16 Pmp22-F2sN Schwann cells (luciferase reporters placed in the Pmp22 gene), FLuc/NLuc coincidence luminescence, 24 h | Potency, µM (top dose mostly 57.5 µM), without a hit: at the highest dose activity change, negative = inhibition, usual class: inhibitors | 43,000 tested, 2% active; active = clear falling dose curves in both reporters; inconclusive = both reporters move, but less clearly or upward; inactive = either reporter flat; the % is the NLuc reporter signal; note: % is set by controls: 0 for no effect and ±100 for the full control effect; some results filed as inactive show a strong effect at the top dose
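qHTS, 1536-well. Cells seeded, compounds added by pin tool, 24 h 37C. Nano-Glo reagent 1 (lysis/FLuc), 10 min RT, read; Stop&Glo, 10 min RT, read NLuc.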
HTT prom inh: Primary qHTS for Identification of Small Molecule Inhibitors of Huntingtin Promoter Activity; HEK293 HTT promoter firefly luciferase reporter (activity 0% = vehicle and -100% = no light), 24 h; Potency, µM (top dose mostly 57.5 µM), inactives show top-dose activity change, negative = inhibition, hits mostly inhibitors; 48,000 tested, 0.93% active; AID 1508623, 2021; active = well fitted inhibition curve with a large enough effect; inconclusive = small, poorly fitted or top-dose-only effect; inactive = no such curve, though single readings can be large or run the other way; note: nearly all actives have a fitted effect of over 50% in size
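HEK293 Fluc reporter, 2,500 cells/well, 24 h pre-culture; cpds up to 57.5 uM final, 24 h 37 degrees C; Dual-Glo, 10 min RT; normalized vehicle = 0%, zero RLU = -100%.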
* = called active by the depositor; [ ] = dose if it differs, or a comment. Potency is the fitted concentration of half-maximal effect.

For COc1ccc(CCNc2nc(SCc3ccc(F)cc3)nc3ccccc23)cc1OC the results were PMP22 txn inconclusive and HTT prom inh -17%.
For Cc1cccc(NC(=O)c2c(C)cc(C)nc2SCC(=O)Nc2c(C)cc(C)cc2C)c1 the results were PMP22 txn -10% and HTT prom inh -26%.
Screening O=C(CSc1nc2cc(C(=O)NC3CCCC3)ccc2c(=O)n1CC1CCCO1)c1ccc(F)cc1 (centres undefined) returned PMP22 txn -19% and HTT prom inh -7%.
Screening COc1ccc2nc3oc(C(=O)N(C)c4ccc(Cl)cc4)cc3cc2c1 returned PMP22 txn -20% and HTT prom inh -6%.
CC(C)(C)NC(=O)[C@H]1CN(Cc2cccnc2)CCN1C[C@@H](O)C[C@@H](Cc1ccccc1)C(=O)N[C@H]1c2ccccc2C[C@H]1O was read as HTT prom inh -13%.
For O=C(c1ccc2c(c1)CCCC2)N1CCN(c2nc3ccc(F)cc3s2)CC1 the results were PMP22 txn inconclusive and HTT prom inh -13%.
For Cc1nc(-c2ccc(S(=O)(=O)NCc3ccc(N(C)C)cc3)cc2)co1 the results were PMP22 txn -29% and HTT prom inh inconclusive.
For COc1ccc(Cn2ccnc2SCC(=O)Nc2nc3ccccc3s2)cc1 the results were PMP22 txn -22% and HTT prom inh inconclusive.
Screening COc1ccc(NC(=O)CN2C(=O)c3ccccc3Sc3ccc(C(=O)N4CCOCC4)cc32)c(OC)c1 returned PMP22 txn -18% and HTT prom inh -22%.
`O=C(Nc1ccc(Br)cc1)c1ccc(Cl)c(S(=O)(=O)N2CCCCCC2)c1` gave PMP22 txn inconclusive and HTT prom inh inconclusive.
`Cc1nc2c(C(=O)NCCc3ccccc3)c[nH]n2c(=O)c1Cc1ccc(F)cc1Cl` gave PMP22 txn inconclusive and HTT prom inh -19%.
For COc1ccc(C2CC(=O)c3c(C)nc(N4CCN(C=O)CC4)nc3C2)c(OC)c1 (centres undefined) the results were PMP22 txn inconclusive and HTT prom inh inconclusive.
CCc1ccc(C(=O)c2cn(CC(=O)Nc3ccc(OC)cc3OC)c3ccc(CC)cc3c2=O)cc1 was read as PMP22 txn -8% and HTT prom inh -26%.
Screening Cc1cccc(C(=O)Nc2cccc(OCc3cc(=O)n4cc(C)sc4n3)c2)c1 returned PMP22 txn inconclusive and HTT prom inh 12%.
CCOc1ccc(C(=O)NCC(c2ccc3c(c2)OCO3)N2CCN(c3ccc(F)cc3)CC2)cc1 (centres undefined) was read as PMP22 txn -12% and HTT prom inh inconclusive.
`CCc1ccc(NC(=O)CCn2cnc3ccccc3c2=O)cc1` gave PMP22 txn -7% and HTT prom inh 2%.
`Cc1cc(N2CCN(c3cccc(C(F)(F)F)c3)CC2)n2nc(-c3ccccc3C)nc2n1` gave PMP22 txn 16µM* and HTT prom inh -15%.
Cc1ccc2oc(-c3ccc(Cl)c(NC(=O)c4ccc(-c5ccccc5[N+](=O)[O-])o4)c3)nc2c1 was read as PMP22 txn -6% and HTT prom inh 21%.
Screening O=C(NCCCO)C(=O)NCC(c1ccc2c(c1)OCO2)N1CCOCC1 (centres undefined) returned PMP22 txn 4% and HTT prom inh -9%.
Screening Cc1cc(Cl)ccc1OCC(=O)N1CCC(c2nc3ccccc3s2)CC1 returned PMP22 txn -70% and HTT prom inh inconclusive.
For COc1ccc(NC(=O)CSc2nc3c(oc4ccccc43)c(=O)n2-c2ccccc2)cc1OC the results were PMP22 txn -5% and HTT prom inh -17%.
`COc1cccc(C(=O)Nc2ccc3nc4n(c(=O)c3c2)CCCCC4)c1` gave PMP22 txn -17% and HTT prom inh 27%.
For O=c1cc2nc(-c3ccccc3)nc(SCCOc3ccc(Cl)cc3)n2[nH]1 the results were PMP22 txn -6% and HTT prom inh -13%.
`CCOC(=O)Cn1nc(C)c(NC(=O)COc2ccc(Cl)cc2C)c1C` gave PMP22 txn inconclusive and HTT prom inh inconclusive.
`COc1cc(OC)c(N(C)C(=O)c2cc3c(=O)oc4ccccc4c3s2)cc1Cl` gave PMP22 txn -17% and HTT prom inh -4%.
`CC(=O)N(CC(=O)N(C)C)c1ccccc1` gave HTT prom inh 1%.
Screening CS(=O)(=O)c1ccc(C2=C(c3ccccc3)C(=O)OC2)cc1 returned HTT prom inh 0%.
For O=C(c1ccc(CS(=O)(=O)c2c(Cl)cccc2Cl)o1)N1CCN(c2ccccc2)CC1 the results were PMP22 txn inconclusive and HTT prom inh -36%.
For CN(Cc1ccccc1)S(=O)(=O)c1cc(Br)cc2c1N(C(=O)C1CC1)CC2 the results were PMP22 txn inconclusive and HTT prom inh -32%.
For Cc1ccc(NC(=O)Cn2cc(C(=O)c3ccco3)c3ccccc32)c(C)c1 the results were PMP22 txn inconclusive and HTT prom inh -22%.
Cc1ccc(CNC(=O)c2ccc(-c3nc(CN4CCc5ccccc54)c(C)o3)cc2)cc1 was read as PMP22 txn -28% and HTT prom inh -36%.
Screening N=c1ccn2c(n1)O[C@H]1[C@@H](O)[C@@H](CO)O[C@H]12 returned HTT prom inh 7%.
COC(=O)CSc1ncc2c(n1)-c1ccccc1N(Cc1ccccc1C)S2(=O)=O was read as PMP22 txn -10% and HTT prom inh -6%.
`CC(CNC(=O)c1ccc(CSc2nc3ccncc3n2Cc2cccc(F)c2)cc1)c1ccccc1` (centres undefined) gave PMP22 txn inconclusive and HTT prom inh inconclusive.
`CCCCOC(=O)CSc1ncnc2sc3c(c12)CCC(C)C3` (centres undefined) gave PMP22 txn -9% and HTT prom inh 2%.
CCCCN(C)CCNC(=O)c1c2c(nc3ccccc13)C(=O)N(C1CCCCC1)C2 was read as PMP22 txn -2% and HTT prom inh -8%.
For Cc1ccc(N(Cc2cccs2)C(=O)COc2ccccc2[N+](=O)[O-])cc1 the results were PMP22 txn inconclusive and HTT prom inh -31%.
`COc1ccc(NC(=O)c2cc3c(=O)n(Cc4cccnc4)ccc3nc2C)c(OC)c1` gave PMP22 txn -13% and HTT prom inh -2%.
CCc1ccccc1NC(=O)CCS(=O)(=O)c1cccc2nonc12 was read as PMP22 txn -11% and HTT prom inh -3%.
For Cc1ccc(-n2ncc(C(=O)N3CCN(c4cc(Cl)ccc4C)CC3)c2C2CCN(C(=O)OC(C)(C)C)CC2)cc1 the results were PMP22 txn -11% and HTT prom inh 0%.
For CCOc1ccc(Sc2cc(C(=O)NCc3ccc(C)cc3)c3ccccc3n2)cc1 the results were PMP22 txn -6% and HTT prom inh -13%.
`N#Cc1c(C(F)(F)F)cc(-c2ccc(F)cc2)nc1SCC(=O)Nc1ccccc1` gave PMP22 txn -10% and HTT prom inh -14%.
Screening Cc1ccc(OCC(=O)Nc2ccc(C(=O)OCc3cc(=O)n4c(C)csc4n3)cc2)cc1 returned PMP22 txn inconclusive and HTT prom inh inconclusive.
CCc1ccccc1NC(=O)CSc1ncc(S(=O)(=O)c2ccccc2)c(=O)[nH]1 was read as PMP22 txn -33% and HTT prom inh -5%.
For Cc1ccc(-c2nc(C(=O)NCc3ccc(Cl)cc3)c3n2CCCCC3)cc1 the results were PMP22 txn inconclusive and HTT prom inh inconclusive.
Screening O=C(Nc1cc(Cl)ccc1O)c1cc2nc(-c3ccc4c(c3)OCO4)cc(C(F)(F)F)n2n1 returned PMP22 txn 10% and HTT prom inh -5%.
Screening CCOC(=O)c1cnc2cc(C(F)(F)F)ccc2c1Nc1ccc(F)cc1F returned PMP22 txn -4% and HTT prom inh -22%[11.5 µM].
For Cn1cnc(S(=O)(=O)N2CCC(C(=O)NCc3ccc(Cl)cc3)CC2)c1 the results were PMP22 txn 14% and HTT prom inh -15%.
For CCOC(=O)c1ccc2c(c1)[C@@H]1C=CC[C@@H]1[C@H](c1cccc(OC)c1OC)N2 the results were PMP22 txn inconclusive and HTT prom inh -4%.
`COc1cccc(C2C(C(=O)Nc3ccc(C)cc3C)=C(C)Nc3nc4ccccc4n32)c1OC` (centres undefined) gave PMP22 txn 10% and HTT prom inh -6%.
`OCCN1CCN(CC/C=C2/c3ccccc3Sc3ccc(C(F)(F)F)cc32)CC1` gave HTT prom inh -12%.
Screening Cc1cccc(-n2ncc(C(=O)N3CCN(C4CCCCC4)CC3)c2C2CCN(C(=O)OC(C)(C)C)CC2)c1 returned PMP22 txn inconclusive and HTT prom inh -7%.
`Cc1cccc(C)c1Nc1sc(C(=O)c2ccccc2)c(N)c1C(=O)Nc1ccc(F)cc1` gave PMP22 txn inconclusive and HTT prom inh inconclusive.
For COC(=O)[C@@H]1[C@H]2C[C@H]3c4[nH]c5ccccc5c4CCN3C[C@@H]2CC[C@@H]1O the results were HTT prom inh 5%.
For COc1ccc(OC)c(NC(=O)Cn2c(=O)n(-c3ccc(Cl)cc3)c(=O)c3c(C)c(C)sc32)c1 the results were PMP22 txn -23% and HTT prom inh -15%.
CCCCC(=O)Nc1c(C(=O)N2CCN(c3ccccc3F)CC2)oc2ccccc12 was read as PMP22 txn -9% and HTT prom inh inconclusive.
Screening CCOc1ccc(CNC(=O)c2cc(=O)[nH]c3ccc(S(=O)(=O)N4CCCCC4)cc23)cc1 returned PMP22 txn -7% and HTT prom inh 8%.
For COC(=O)c1scc(-c2ccc(C)cc2)c1S(=O)(=O)N1CCN(c2cccc(OC)c2)CC1 the results were PMP22 txn inconclusive and HTT prom inh -27%.
For COc1ccc(OC)c(-n2c3c(cc(-c4nc(-c5ccc(Cl)cc5)cs4)c2=O)C(=O)CC(C)(C)C3)c1 the results were PMP22 txn inconclusive and HTT prom inh -11%.
Screening COc1cc(Cl)c(C)cc1NC(=O)c1nn(C)c2c1CSc1ccccc1-2 returned PMP22 txn 4% and HTT prom inh -8%.
`O=C1CC(c2nc(-c3ccccc3)no2)CN1c1ccc2c(c1)OCCO2` (centres undefined) gave PMP22 txn -25% and HTT prom inh -13%.
`CCOC(=O)c1c(N)n(-c2ccc(C)c(Cl)c2)c2nc3ccccc3nc12` gave PMP22 txn -10% and HTT prom inh -8%.
CCOC(=O)c1cccc(NC(=O)c2ccc3nc(CCc4ccccc4)oc3c2)c1 was read as PMP22 txn -3% and HTT prom inh 25%.
Screening CCCn1c(=N)c(C(=O)NC2CCCC2)cc2c(=O)n3cc(C)ccc3nc21 returned PMP22 txn -20% and HTT prom inh 4%.
`Cc1ccc(Cn2c(=O)n(Cc3ccccc3Cl)c(=O)c3cccnc32)cc1` gave PMP22 txn -1% and HTT prom inh -4%.
CCCC(=O)Nc1cc(-c2nnc3c4ccccc4c(C)nn23)ccc1C was read as PMP22 txn 1% and HTT prom inh 13%.
Screening CC(C)(CC(=O)OCC(=O)Nc1ccccc1F)CC1=NS(=O)(=O)c2ccccc2N1 returned PMP22 txn inconclusive and HTT prom inh inconclusive.
CCOc1ccccc1NC(=O)Cn1nnc2sc(-c3ccccc3)cc2c1=O was read as PMP22 txn -3% and HTT prom inh 11%.
For C[C@H]1C[C@H]2[C@@H]3CCC4=CC(=O)C=C[C@]4(C)[C@H]3C(=O)C[C@]2(C)[C@@]1(O)C(=O)CO the results were HTT prom inh 31%.
For CCC1=Nc2cc(C(=O)NCC(C)c3ccccc3)ccc2Sc2ccc(C)cc21 (centres undefined) the results were PMP22 txn inconclusive and HTT prom inh inconclusive.
Screening CCc1ccc(CN(Cc2ccco2)C(=O)COc2ccc(Cl)c(C)c2)cc1 returned PMP22 txn inconclusive and HTT prom inh -28%.
Screening CCN(Cc1ccccc1)C(=O)c1cc2ccc3cccnc3c2[nH]1 returned PMP22 txn -15% and HTT prom inh -1%.
O=c1c2ccccc2nc(/C=C/c2cccc3ccccc23)n1-c1ccc(F)cc1F was read as PMP22 txn 5% and HTT prom inh inconclusive.
For COc1cccc(OCCCCn2c(-c3ccc(Cl)cc3)nc3ccccc3c2=O)c1 the results were PMP22 txn 13% and HTT prom inh -8%.
For COc1ccc(OC)c(CNS(=O)(=O)c2ccc3[nH]c4c(c3c2)CCCCC4)c1 the results were PMP22 txn 15µM* and HTT prom inh inconclusive.
CCOc1ccccc1NC(=O)Cn1nnc(C(=O)NCc2cccs2)c1N was read as PMP22 txn 0.4µM* and HTT prom inh inconclusive.
`O=C(CCc1nc2cccnc2n1Cc1ccccc1)NCc1cccc(Cl)c1` gave PMP22 txn -4% and HTT prom inh -17%.

Source: PubChem
